RGS16-Gao HTS: modulators of RGS16 binding to Galphao, primary screen, biochemical, human proteins, multiplexed bead flow cytometry. Regulator of G-protein signaling 16 (Homo sapiens) + Guanine nucleotide-binding protein …. bead-based flow cytometry RGS16-Galphao binding, fluorescence; actives lie on both sides. binding response (% of control), % at 10 µM. actives 0.38% (n = 220,000);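 active = below 25% or above 175%, edge rows of some plates excepted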;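 note: Galphao activated by GDP with aluminum fluoride before binding; 100% = wells without compound and 0% = beads without RGS; some results beyond the cut were filed as inactive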
GALR2 ag: GALR2 receptor agonists, primary screen, cell-based; Galanin receptor type 2 (Homo sapiens), O43603; GALR2-expressing cells, agonist activation read-out; activation, %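 (tested at 5 µM)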; actives 0.48% (n = 140,000); AID 803, 2007;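 active = above mean plus 3 SD of all compounds, about 5% in these data, not always enough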;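 note: 0% = vehicle buffer wells and 100% = reference agonist at full effect; tested in CHO reporter cells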
Insulin prom inh: inhibitors of insulin promoter-driven GFP, primary screen, imaging, TRM-6 cells (human fetal islet line), eGFP reporter, cell count; actives 0.9% (n = 130,000); AID 1273, 2008; reporter expression induced with tamoxifen; inhibition, % at 2 µM;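 active = inhibition above the mean plus 3 SD, with well images judged a real hit on visual review, cut at about 60% in these data, passing the limit was not always enough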
PKD1 kinase inh: inhibitors of human PKD1 kinase, biochemical, fluorescence polarization | Serine/threonine-protein kinase D1 (Homo sapiens), Q15139 | PKD1 kinase fluorescence polarization assay | actives 0.056% (n = 200,000) | inhibition, %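 (about 10 µM by stock and volumes)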;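 active = inhibition of 50% or more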;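 note: controls were vehicle for no effect and a reference inhibitor for full effect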
Target sequence (Q15139 whole entry, looked up): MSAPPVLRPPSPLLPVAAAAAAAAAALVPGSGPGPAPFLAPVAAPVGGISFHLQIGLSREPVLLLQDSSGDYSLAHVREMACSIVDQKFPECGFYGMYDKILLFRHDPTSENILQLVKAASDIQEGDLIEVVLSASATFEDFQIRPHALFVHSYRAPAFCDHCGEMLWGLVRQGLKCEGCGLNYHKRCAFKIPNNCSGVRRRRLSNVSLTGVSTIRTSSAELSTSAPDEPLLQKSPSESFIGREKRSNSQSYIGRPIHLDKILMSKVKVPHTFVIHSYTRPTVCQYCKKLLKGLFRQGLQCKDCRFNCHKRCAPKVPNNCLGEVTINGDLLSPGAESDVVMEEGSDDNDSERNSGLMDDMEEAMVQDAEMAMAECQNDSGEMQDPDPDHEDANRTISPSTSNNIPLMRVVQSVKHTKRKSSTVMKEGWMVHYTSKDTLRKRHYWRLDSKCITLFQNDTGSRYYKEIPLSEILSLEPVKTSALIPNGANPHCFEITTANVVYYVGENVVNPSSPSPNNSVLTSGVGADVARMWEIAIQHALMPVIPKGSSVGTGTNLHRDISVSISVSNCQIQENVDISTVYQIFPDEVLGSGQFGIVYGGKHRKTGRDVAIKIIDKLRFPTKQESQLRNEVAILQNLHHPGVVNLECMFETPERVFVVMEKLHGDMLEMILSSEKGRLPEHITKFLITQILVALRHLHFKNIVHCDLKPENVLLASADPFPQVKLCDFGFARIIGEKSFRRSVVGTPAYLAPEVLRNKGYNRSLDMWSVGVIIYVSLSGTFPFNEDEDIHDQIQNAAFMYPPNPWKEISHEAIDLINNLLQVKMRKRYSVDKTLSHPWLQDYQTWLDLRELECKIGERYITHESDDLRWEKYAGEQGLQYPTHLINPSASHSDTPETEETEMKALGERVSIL
HSV replic up: enhancers of HSV replication in host cells, fold increase, host cell viability; HSV replication augmentation in cells; maximum fold increase; actives 0.005% (n = 220,000);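 active = peak rise of 1.5-fold or more in the series; tested in PC3 cells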;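 note: first round at 10 µM; read as green reporter fluorescence; hits show the peak of a series up to 25 µM; 1 = signal of infected wells without compound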
Insulin prom inh cell count: recorded beside Insulin prom inh, whose call it bears; normalized cell count, %; measured here: cell count, toxicity; reference of the scale not given here;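 cells exposed to compound for 48 h; stained nuclei by imaging scaled within each plate; lower means fewer cells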
HSV replic up primary fold: second read-out of HSV replic up, no call of its own (marks repeat the call); fold increase; compound at 10 µM; measured here: primary screen fold increase 10 uM; tested in PC3 cells;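 GFP signal in the first replicate; 1 = infected wells without compound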
* = called active by the depositor; i = inactive; x = not tested or not shown.

SMILES	RGS16-Gao HTS	GALR2 ag	Insulin prom inh	Insulin prom inh cell count	PKD1 kinase inh	HSV replic up	HSV replic up primary fold
O=C(O)c1ccc(C=C(c2nc3ccccc3s2)c2nc3ccccc3s2)cc1	102.1	x	x	x	-10.0	i	1
COC(=O)c1ccc(/C=N/NC(=S)NCCN2CCOCC2)cc1	103.4	x	x	x	-10.1	i	0.99
CN(C)CCNC(=O)CNC(=S)N(Cc1ccccc1)Cc1ccccc1F	139.1	x	-25.9	60.6	-6.5	i	0.81
CC(=O)Nc1nnc(SCC(=O)NCCOc2ccccc2)s1	102.7	-1.4	-20.0	104.2	-10.5	i	0.97
CN(C)c1cc(-c2ccc(C#N)cc2)oc(=O)c1Cl	105.5	x	x	x	x	i	1.19
Cn1c(/N=C/c2cccs2)nc2ccccc21	105.2	-1.7	-6.7	66.2	-13.7	x	x
COc1cccc(N(CC(=O)N2CCc3ccccc3C2)S(C)(=O)=O)c1	100.2	0.0	-6.7	108.6	-7.2	i	0.74
COc1cccc(CN=C2Nc3ccccc3CS2)c1	104.8	x	-11.1	47.8	5.8	i	0.94
CN(C)S(=O)(=O)c1ccc(N=Cc2c(C(F)(F)F)[nH][nH]c2=O)cc1	100.5	x	x	x	1.7	i	1.12
Cc1cc(/C=N/n2c(COc3ccccc3)nc3ccccc3c2=O)c(O)c([N+](=O)[O-])c1	90.7	-2.2	x	x	-4.5	i	0.98
COCCOC(=O)C1=C(C)NC(C)=C(C(=O)OC(C)C)C1c1cccc([N+](=O)[O-])c1 (configuration not stated)	101.4	0.5	9.5	88.6	-9.5	i	0.84
COC(=O)c1cc2oc3ccccc3c2n1Cc1ccccn1	94.3	-0.6	x	x	-6.7	i	0.74
COc1ccc(/C=C2\SC(=S)N(N3C(=O)CCC3=O)C2=O)cc1O	107.0	x	60.0	114.0	-2.4	i	1.01
Cc1cc(NS(=O)(=O)c2cccs2)no1	89.4	-2.1	x	x	-11.7	i	1.04
CCOC(=O)Nc1ccc(NC(=O)OCC)cc1	100.1	-1.5	29.7	115.8	8.9	x	x
O=C(NCCCNc1ccc(C(F)(F)F)cc1[N+](=O)[O-])c1ccc(Cl)cc1	101.9	-1.3	0.0	82.8	-12.5	i	0.98
Brc1csc(C=Nc2ccc3c(c2)OCCOCCOCCOCCO3)c1	108.1	-0.9	-6.2	73.1	0.5	i	0.96
Cc1cccc(NC(=S)NC(=O)CCc2ccccc2)c1C	118.4	-0.4	-23.9	155.8	-8.6	i	0.8
COc1ccc2c(c1)c(CC(=O)OCC(N)=O)c(C)n2C(=O)c1ccc(Cl)cc1	95.7	x	x	x	x	i	0.94
CSc1ncccc1C(=O)Nc1ccc2nc(C)sc2c1	98.3	x	x	x	x	i	0.86
O=C1NC2NC(=O)N(C(Cc3ccccc3)C(=O)O)C2N1 (configuration not stated)	104.5	-2.4	x	x	-14.7	i	0.99
CCOC(=O)C(CC)Sc1nc2c(cnn2-c2ccccc2)c(=O)[nH]1 (configuration not stated)	99.7	0.5	x	x	-4.8	i	0.92
Clc1cccc(CNc2nnnn2-c2ccccc2)c1	99.9	-1.4	-17.9	227.7	6.9	i	0.86
CCOc1cc(S(=O)(=O)NC2CCCCCC2)ccc1F	101.2	1.5	-420.0	73.8	-7.7	i	0.59
Cc1cccc(NC(=O)c2ccc3c(Cl)c4c(nc3c2)CCCC4)n1	93.2	x	x	x	3.6	i	0.97
CC(C)N1C(=O)CCC1C(=O)NCc1ccco1 (configuration not stated)	92.0	x	x	x	-0.2	i	0.93
CN(Cc1cccs1)C(=O)c1ccc(S(=O)(=O)N2CCCCC2)cc1	102.0	x	x	x	x	i	1.05
CCOc1ccccc1-n1c(SCC(=O)N2CCOCC2)nnc1-c1ccccn1	50.9	-3.5	26.5	61.1	4.1	i	1.08
CCOc1cccc(C2c3c(oc4ccccc4c3=O)C(=O)N2c2ccccn2)c1 (configuration not stated)	109.9	0.3	-17.1	102.8	-8.4	x	x
Cc1n[nH]c(C)c1S(=O)(=O)Nc1ccc2c(c1)OCCO2	103.2	-1.0	14.7	108.8	-3.7	i	0.98
Cc1ccnc(NC(=O)CCCOc2cc(=O)n(C)c3ccccc23)c1	104.8	-1.5	x	x	0.8	i	0.58
CCOCCCNC(=O)CC1Oc2ccc(C)cc2NC1=O (configuration not stated)	95.0	-0.7	-42.9	109.2	-4.6	i	0.92
CN1/C(=C\C(=O)COC(=O)c2ccc(O)c(O)c2)C(C)(C)c2ccccc21	87.7	x	-6.7	92.6	0.9	i	0.93
Cc1cccc(OCC(=O)O/N=C(\N)c2ccc(Cl)cc2)c1	98.5	-3.4	x	x	3.1	i	0.86
COc1ccc(OCC(=O)NC(=S)NNC(=O)COc2ccc(Br)cc2Cl)cc1	103.6	x	-23.5	100.0	5.2	i	0.91
CN(CCCC1CCCC1)C(=O)CCc1nnc(-c2ccccc2)o1	98.4	x	x	x	-0.8	i	0.93
CSc1nnc(C)c(=O)[nH]1	76.2	-1.8	60.7	137.1	-4.7	i	1.04
COc1ccc(CC(=O)NCc2n[nH]c(=S)n2-c2cccc(C)c2)cc1	98.0	x	71.4*	60.9*	-1.1	i	1.07
Cc1ccc(SCC(=O)NCc2cccnc2)cc1	106.4	-1.2	-11.1	182.0	6.2	i	0.77
COCCSc1ccccc1C(=O)Nc1ccc(Br)cc1	100.9	x	-28.6	109.8	3.0	i	0.9
O=C(c1ccc2c(c1)OCO2)C1CCCN(C(=O)NCc2ccccc2)C1 (configuration not stated)	106.2	x	-56.5	168.9	-0.6	i	1.01
COc1cccc(-n2nnc3c(=O)n(Cc4ccc(Br)cc4)cnc32)c1	102.3	-1.1	-50.0	119.9	-3.2	i	0.75
CCCSc1nnc(NC(=O)c2nc(SC)ncc2Cl)s1	95.9	-1.2	-13.3	79.3	-2.6	i	0.93
CC(=O)Nc1cccc(-c2csc(Nc3cc(C)ccn3)n2)c1	99.4	-1.9	x	x	-12.3	i	0.96
CCO[C@H]1OC(C(=O)N2CCCCCCC2)=C[C@@H](c2ccccc2)[C@@H]1CCCO	102.2	x	x	x	0.2	x	x

7 neighbouring entries already listed, for reference:
SMILES	RGS16-Gao HTS	GALR2 ag	Insulin prom inh	Insulin prom inh cell count	PKD1 kinase inh	HSV replic up	HSV replic up primary fold
Cc1ccc(SCC(=O)NCc2cccnc2)cc1	106.4	-1.2	-11.1	182.0	6.2	i	0.77
COCCSc1ccccc1C(=O)Nc1ccc(Br)cc1	100.9	x	-28.6	109.8	3.0	i	0.9
O=C(c1ccc2c(c1)OCO2)C1CCCN(C(=O)NCc2ccccc2)C1 (configuration not stated)	106.2	x	-56.5	168.9	-0.6	i	1.01
COc1cccc(-n2nnc3c(=O)n(Cc4ccc(Br)cc4)cnc32)c1	102.3	-1.1	-50.0	119.9	-3.2	i	0.75
CCCSc1nnc(NC(=O)c2nc(SC)ncc2Cl)s1	95.9	-1.2	-13.3	79.3	-2.6	i	0.93
CC(=O)Nc1cccc(-c2csc(Nc3cc(C)ccn3)n2)c1	99.4	-1.9	x	x	-12.3	i	0.96
CCO[C@H]1OC(C(=O)N2CCCCCCC2)=C[C@@H](c2ccccc2)[C@@H]1CCCO	102.2	x	x	x	0.2	x	x

Back to the main list; the seven compounds before the break are reprinted first.
SMILES	RGS16-Gao HTS	GALR2 ag	Insulin prom inh	Insulin prom inh cell count	PKD1 kinase inh	HSV replic up	HSV replic up primary fold
Cc1ccc(SCC(=O)NCc2cccnc2)cc1	106.4	-1.2	-11.1	182.0	6.2	i	0.77
COCCSc1ccccc1C(=O)Nc1ccc(Br)cc1	100.9	x	-28.6	109.8	3.0	i	0.9
O=C(c1ccc2c(c1)OCO2)C1CCCN(C(=O)NCc2ccccc2)C1 (configuration not stated)	106.2	x	-56.5	168.9	-0.6	i	1.01
COc1cccc(-n2nnc3c(=O)n(Cc4ccc(Br)cc4)cnc32)c1	102.3	-1.1	-50.0	119.9	-3.2	i	0.75
CCCSc1nnc(NC(=O)c2nc(SC)ncc2Cl)s1	95.9	-1.2	-13.3	79.3	-2.6	i	0.93
CC(=O)Nc1cccc(-c2csc(Nc3cc(C)ccn3)n2)c1	99.4	-1.9	x	x	-12.3	i	0.96
CCO[C@H]1OC(C(=O)N2CCCCCCC2)=C[C@@H](c2ccccc2)[C@@H]1CCCO	102.2	x	x	x	0.2	x	x
Oc1cc(-n2cccn2)c(O)cc1-n1cccn1	95.3	x	x	x	x	i	1.02
C[N+]1(CCCOC(=O)C2(c3ccccc3)CCCC2)CCOCC1	84.0	-0.7	-14.3	114.9	-4.3	i	0.94
O=C(Cn1c(=O)n(CCCC(=O)NC2CCCC2)c(=O)c2ccccc21)NCCC1=CCCCC1	99.9	-1.1	-37.0	121.3	-8.4	i	0.95
CCOC(=O)c1c(C)[nH]c(C(=O)COC(=O)COc2ccc(OC)cc2)c1C	101.4	-1.5	x	x	-2.5	i	1.04
COc1ccc(C2CC(c3ccccc3)Nc3nc(NC(=O)c4ccco4)nn32)cc1 (configuration not stated)	104.6	-1.4	58.3	76.4	-10.4	i	0.96
COc1cccc2c1OC1(C)CC2N(C(=O)c2ccco2)C(=S)N1c1ccc(F)cc1 (configuration not stated)	99.8	-1.7	13.9	72.5	-6.9	i	1.05
O=C(Cn1c(CO)nc2ccccc21)NCc1ccc2c(c1)OCO2	106.2	x	x	x	x	i	0.94
Cc1cccc(/C=N/NC(=O)C2CCCNC2=O)c1 (configuration not stated)	105.7	-1.8	38.5	70.7	0.8	i	1.04
C/C(=N/Nc1nc(C)cc(-c2ccccc2)n1)c1ccco1	92.8	-2.1	0.0	54.0	-1.2	i	0.88
O=C(c1cccnc1)N(Cc1ccccc1)c1ccccc1	93.8	-0.4	-338.1	46.0	0.3	i	1.04
COC(=O)c1nc2n(n1)C(c1ccc(OC)c(OC)c1)C(C(=O)OC1CCCCC1)=C(C)N2 (configuration not stated)	-38.1*	-2.5	18.9	111.4	1.3	i	0.9
O=C(CCN1C(=O)c2ccccc2C1=O)NC(=S)Nc1cccc(Cl)c1	118.7	0.9	13.3	86.8	-2.5	i	0.947
O=C(NNC(=O)c1ccco1)c1ccccc1	103.8	-0.4	26.5	89.2	-0.9	i	1.02
CCOC(=O)c1nnsc1N	95.3	x	x	x	x	i	0.95
CCCC1Cc2nc(Cl)c(C#N)cc2CO1 (configuration not stated)	93.2	x	x	x	x	i	1.24
O=c1cc(CSc2ccccc2)[nH]c(=S)[nH]1	100.6	-1.3	-14.3	102.5	-3.6	i	0.99
CN1CCN(C2=C(Cl)C(=O)N(CCc3ccccc3)C2=O)CC1	108.7	-3.7	62.5	131.6	-11.4	i	0.89
CCCCNC(=S)NNC(=O)CCn1cc(C)cn1	97.7	0.0	8.3	148.0	-10.5	i	0.94
Cc1ccc([N+](=O)[O-])cc1NC(=O)Cc1ccc(F)cc1	x	x	46.7	127.6	2.3	i	0.73
COc1cccc(NC(=O)CN(c2cccc(F)c2)S(C)(=O)=O)c1	105.2	-2.1	-443.8	62.0	-2.5	i	1.04
COCCn1c(SCc2cnc(-c3ccccc3)s2)nnc1-c1ccncc1	96.5	0.0	x	x	-1.9	i	0.91
Cc1nn(Cc2c(F)c(F)c(F)c(F)c2F)c(C)c1NC(=O)c1ccc(COc2ccccc2Cl)o1	101.1	-1.6	-35.1	175.0	0.8	x	x
C/C(=N\NS(=O)(=O)c1ccc(C)cc1)c1ccc(C)o1	99.6	x	41.7	57.9	6.7	i	1.01
COC(=O)c1ccccc1NC(=O)CN1CCCCC1	102.5	x	x	x	-7.4	i	0.95
NS(=O)(=O)c1ccc(CCNCC(=O)N2CCC(Cc3ccccc3)CC2)cc1	97.9	x	x	x	x	i	1.02
COc1ccc(-c2ccc(SCC(=O)Nc3cccc(C(C)=O)c3)nn2)cc1OC	122.4	x	x	x	-1.2	i	0.61
